Sa growth 42C: S. aureus growth inhibition at 42 and 30 °C, primary screen, LtaS inhibitor project, RN4220, two temperatures; OD600, 20 h, 42 °C; stronger effect = lower value; relative growth, % (no concentration beside the values); hit rate 0.53% among 170,000; AID 720641, 2013;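 active = growth at 42 °C up to 50% and 20 or more points under that at 30 °C, or under 10% at both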;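 note: 300 nL library stock went into each well; scaled to the means of positive and negative controls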
GIV-Gai inh: inhibitors of GIV peptide binding to Galpha-i3, primary screen, biochemical, fluorescence polarization, FITC-GIV GBA peptide, rat Galphai3; 90 min; stronger effect = lower value; scaled: aluminum fluoride 0%, vehicle 100%; percent of control (FP), % (no concentration beside the values); hit rate 0.42% among 210,000;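 active = replicate mean at 85% of control or lower, very high polarization wells dropped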;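 note: wells of about 15 µL received 100 nL stock; the first replicate is given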
Target sequence (P08753 whole entry, looked up): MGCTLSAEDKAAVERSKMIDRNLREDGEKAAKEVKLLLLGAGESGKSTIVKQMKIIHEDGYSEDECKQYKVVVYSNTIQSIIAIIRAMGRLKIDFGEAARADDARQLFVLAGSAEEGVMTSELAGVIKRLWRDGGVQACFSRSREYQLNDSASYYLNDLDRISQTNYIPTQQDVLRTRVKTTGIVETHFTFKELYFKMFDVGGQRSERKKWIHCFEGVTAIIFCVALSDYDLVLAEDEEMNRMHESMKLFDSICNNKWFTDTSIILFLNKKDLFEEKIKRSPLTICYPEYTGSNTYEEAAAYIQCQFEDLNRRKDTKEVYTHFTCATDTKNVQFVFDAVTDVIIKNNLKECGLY
HCMV NEC inh: inhibitors of HCMV UL50-UL53 interaction, biochemical, HTRF | HCMV UL50-UL53 nuclear egress complex (human cytomegalovirus) | normalized percent inhibition | inhibition, % (no concentration beside the values) | hit rate 0.15% among 190,000 | AID 1918969, 2023;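 active = both replicates at 50% or more, plus weaker picks with an unusually low signal ratio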;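 note: stock transfer was 100 nL into about 20 µL; 0% = negative control wells and 100% = wells with untagged competitor protein; inactives centre near -12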
Sa growth 42C second temp: further read-out of Sa growth 42C, marked with its call; relative growth, %; measured here: growth at 30 °C;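 optical density after 20 h as mean of two plates; 100% = untreated growth and lower means inhibition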
Starred values were filed as active, the others as inactive; . = not tested or not shown; & = joins results of further samples.

1	CC1CCN(S(=O)(=O)c2ccc3c(c2)N(CC(=O)NCCc2ccc(Cl)cc2)C(=O)CO3)CC1
2	COc1ccccc1CNC(=O)c1ccc2c(c1)n(C)c(=O)c(=O)n2C
3	CCOC(=O)c1sc(=NC(=O)c2ccc(OCC)cc2)n(C)c1C
4	O=P1(O)C=C(c2ccccc2)OC(c2ccccc2)=C1
5	COc1cc(S(=O)(=O)N2CCN(c3cc(N4CCCC4)nc(C)n3)CC2)c(C)cc1C
6	CN(C)c1ccc(NC(=O)/C=C\C(=O)N2CCOCC2)cc1

entry no. | 1 | 2 | 3 | 4 | 5 | 6
Sa growth 42C | 104 | 93 | 95 | 71 | . | 92
GIV-Gai inh | 106 | 102 | 104 | . | 101 | 107
HCMV NEC inh | 6 | 4 | . | -26 | -11 | 28
Sa growth 42C second temp | 81 | 85 | 95 | 81 | . | 78

7	CCOc1ccc(S(=O)(=O)NCCCn2c(-c3ccc(C)cc3)nc3cccnc32)cc1
8	N#Cc1c(S/C=C(\O)c2ccccc2)nc2c(c1C(F)(F)F)CCCC2
9	c1ccc(-c2csc(N3CCNCC3)n2)cc1
10	CN(C)CC(C)(C)CNCc1ccc(-n2cnc3ccccc32)cc1
11	Cc1ccc2nc(-c3ccc(Cl)c(NC(=O)c4ccc5c(c4)OCCO5)c3)oc2c1
12	CC(=O)N/N=C(\C)CCc1ccccc1

entry no. | 7 | 8 | 9 | 10 | 11 | 12
Sa growth 42C | . | 107 | 98 | 107 | 107&78 | 84
GIV-Gai inh | 112 | -44* | 98 | . | 100&102&96 | .
HCMV NEC inh | -21 | -41 | -28 | 1 | -21&-22&-21 | -13
Sa growth 42C second temp | . | 89 | 91 | 91 | 90&71 | 92

13	COC(=O)CN1C(=O)CSc2ccc(S(=O)(=O)Nc3cccc(C)c3C)cc21
14	O=C(NCc1ccc2c(c1)OCO2)C1CCn2c(nc3ccccc32)C1 (configuration not stated)
15	Cc1cccc(CN2CCc3nc(N4CCN(c5ccccn5)CC4)ncc3C2)c1
16	O=C(NCCc1ccccc1)c1cc(S(=O)(=O)N2CCCCC2)c[nH]1
17	CCn1cc2nc(SCc3cccc(F)c3)n(CCc3ccccc3)c(=O)c2n1
18	COCCNC(=O)c1cc2c(s1)-c1ccsc1CC2

entry no. | 13 | 14 | 15 | 16 | 17 | 18
Sa growth 42C | 91 | . | 94 | 91 | 75 | 102
GIV-Gai inh | 103&102 | 104 | 105 | 99 | 100 | 111
HCMV NEC inh | -2 | -34 | . | . | . | -72
Sa growth 42C second temp | 78 | . | 91 | 83 | 75 | 64

19	Cc1nc2cc(CCO)ccc2s1
20	CC1CN(C(=O)Nc2ccc(C(=O)NCCc3ccccc3Cl)cc2)c2ccccc2S1 (configuration not stated)
21	CC(=O)N(C)c1ccc(N=Nc2c(-c3ccccc3)[nH][nH]c2=O)cc1
22	Cc1ccc(C)c(Nc2nnc(-c3ccc(C)c(S(=O)(=O)N4CCN(C)CC4)c3)c3ccccc23)c1
23	Cc1cc(C)c(NS(=O)(=O)c2ccc3c(c2)CC(C)N3C(=O)C2CCC2)c(C)c1 (configuration not stated)
24	Nc1nc(-c2ccc3c(c2)CCC(=O)N3)cs1

entry no. | 19 | 20 | 21 | 22 | 23 | 24
Sa growth 42C | 99 | 107 | 81 | 112 | 87 | 109
GIV-Gai inh | 107 | 104 | 101 | 112 | 106 | 93
HCMV NEC inh | . | 0 | -114 | -19 | . | -15
Sa growth 42C second temp | 94 | 97 | 29 | 84 | 70 | 93

25	CN1C(=O)C(=Cc2cn(CC(=O)O)c3ccccc23)C(=O)N(C)C1=S
26	O=C1CCCC(=O)C1C(c1ccc(-c2cc(C(F)(F)F)ccc2Cl)o1)C1C(=O)CCCC1=O
27	Cc1noc(C)c1C(=O)OCC(=O)NC(c1ccccc1)c1ccccc1
28	Cn1c(=O)cc(SCC(=O)Nc2cccc(C#N)c2)c2ccc(Cl)cc21
29	FC(F)(F)c1ccc2ccccc2c1Cl
30	CCc1ccc(NC(=O)c2sc3nc(C)cc(C)c3c2-n2cccc2)cc1

entry no. | 25 | 26 | 27 | 28 | 29 | 30
Sa growth 42C | 82 | 91 | 83 | 96 | 101 | .
GIV-Gai inh | 114 | 102 | . | 105 | . | 107
HCMV NEC inh | 3 | -6 | -9 | -21 | 3 | -16
Sa growth 42C second temp | 91 | 70 | 90 | 96 | 101 | .

31	CCOC(=O)c1nc(C)sc1-c1ccnn1S(=O)(=O)c1ccc(Cl)cc1Cl
32	CN(Cc1ccccc1)S(=O)(=O)c1ccc(NC(=O)c2cnccn2)cc1
33	CCCc1ccc(S(=O)(=O)N2CCC(CN3CCCCC3)CC2)cc1
34	COc1ccc(C(=O)N2CCCC(c3cccc(C(=O)N4CCN(c5ccccn5)CC4)c3)C2)cc1 (configuration not stated)
35	CS/C(=C(/C#N)S(=O)(=O)C(C)C)N1CCCCC1
36	CC(C)(O)C1(C)c2ccccc2CCN1Cc1ccccc1 (configuration not stated)

entry no. | 31 | 32 | 33 | 34 | 35 | 36
Sa growth 42C | 102 | . | . | . | 93 | 95
GIV-Gai inh | 102 | 101 | 102 | 107 | 105 | 98
HCMV NEC inh | -16 | -8 | -4 | 20 | -24 | -29
Sa growth 42C second temp | 89 | . | . | . | 85 | 89

37	CCOc1cc(C(=O)NC2=C(C(=O)OC)SCC2)cc(OCC)c1OCC
38	COc1cc(C(=O)N2CCOCC2)cc(OC)c1OC
39	CCOC(=O)Cn1c(=O)n(C2CCCCC2)c2nc(-c3cccc(F)c3)nc(C(N)=O)c21
40	CCOC(=O)c1cc(NC(=O)SCC(=O)O)c(C)nc1C
41	CCOC(=O)c1ccc(NC(=O)c2sc3nc4n(c(=O)c3c2C)CCC4)cc1
42	O=C(NC(=O)c1c(Cl)cccc1Cl)Oc1c(F)cccc1F

entry no. | 37 | 38 | 39 | 40 | 41 | 42
Sa growth 42C | 85 | 91 | 89 | 92 | 102 | 104
GIV-Gai inh | 102 | . | 101 | . | 104 | 100
HCMV NEC inh | -29 | -49 | . | -1 | 10 | -14
Sa growth 42C second temp | 82 | 85 | 94 | 90 | 98 | 90

43	c1coc(CSCCNc2nc(-c3cccs3)nc3ccccc23)c1
44	O=C(Nc1nnc(SCCN2C(=O)c3ccccc3S2(=O)=O)s1)c1ccccc1
45	N#C/C(=C\C=C\c1ccco1)C(=O)Nc1cccc(Br)c1
46	CCCc1ccc(OCC(=O)Nc2sc(C(=O)OCC)c(C)c2C(=O)OCC)cc1
47	CCC(C(=O)Nc1cccc(C)c1)n1nc(-c2ccc(C)c(S(=O)(=O)N(CC)CC)c2)ccc1=O (configuration not stated)
48	CCc1c(C)[nH]c(=S)c(C#N)c1C

entry no. | 43 | 44 | 45 | 46 | 47 | 48
Sa growth 42C | 97 | . | 106 | 106 | . | 76
GIV-Gai inh | . | 97 | . | 107 | 98 | .
HCMV NEC inh | 0 | -23 | 6 | 1 | -12 | -14
Sa growth 42C second temp | 95 | . | 101 | 99 | . | 77

49	CCOC(=O)C1CCN(C(=O)C(C)OC(=O)c2ccccc2O)CC1 (configuration not stated)
50	O=C(Nc1ccc(-c2nc3cc(NC(=O)c4ccc(F)cc4)ccc3o2)cc1)c1ccc(F)cc1
51	CC(=O)Nc1nnc2n1CCS2
52	COC(=O)C1CCCNC1=O (configuration not stated)
53	COc1ccc(Nc2ccccc2N)cc1
54	Fc1ccc(CSc2nnc(-c3ccncc3)s2)cc1

entry no. | 49 | 50 | 51 | 52 | 53 | 54
Sa growth 42C | 114 | 111 | 86 | 98 | 7 | 99
GIV-Gai inh | . | 99 | 100 | . | . | 116
HCMV NEC inh | -2 | . | . | -12 | -54 | -10
Sa growth 42C second temp | 89 | 85 | 87 | 90 | 8 | 105

Laid out differently: entries from further up.
Results follow in this order: Sa growth 42C	GIV-Gai inh	HCMV NEC inh	Sa growth 42C second temp
(50) O=C(Nc1ccc(-c2nc3cc(NC(=O)c4ccc(F)cc4)ccc3o2)cc1)c1ccc(F)cc1
  111	99	.	85
(51) CC(=O)Nc1nnc2n1CCS2
  86	100	.	87
(52) COC(=O)C1CCCNC1=O (configuration not stated)
  98	.	-12	90
(53) COc1ccc(Nc2ccccc2N)cc1
  7	.	-54	8
(54) Fc1ccc(CSc2nnc(-c3ccncc3)s2)cc1
  99	116	-10	105

(continued)
55	CN(C)S(=O)(=O)N(CC(=O)Nc1ccccc1F)c1ccccc1
56	NC(=O)CC(NC(=O)c1ccccc1)C(=O)O (configuration not stated)
57	O=c1c(=O)n(Cc2c(F)cccc2Cl)ccn1Cc1ccccc1
58	CC(C)OCCCNC(=O)c1ccc2c(Cl)c3c(nc2c1)CCC3
59	COc1cccc(/C=C2/SC(=S)N(C(C)C(=O)O)C2=O)c1 (configuration not stated)
60	C/C(=N\N=C(/N)SCc1cc(F)cc2c1OCOC2)c1ccc(C)nc1

entry no. | 55 | 56 | 57 | 58 | 59 | 60
Sa growth 42C | 80 | 105 | 110 | . | . | 98
GIV-Gai inh | 108 | . | 101 | 99 | 104 | 110
HCMV NEC inh | 6 | -24 | -8 | -56 | -48 | 3
Sa growth 42C second temp | 86 | 85 | 84 | . | . | 93

61	Cc1ccc2nc(/C(C#N)=C/c3ccc(-c4ccc(C(=O)OC(C)C)cc4)o3)[nH]c2c1
62	O=S(=O)(Nc1ccc(Cl)cc1)c1cccc2nonc12
63	O=C(CSc1nc2ccccc2s1)OCC(=O)c1ccc[nH]1
64	CCOc1ccccc1NC(=O)CCc1c(C)nc2cc(-c3ccccc3)nn2c1C
65	CCCN1C(=O)c2ccccc2CC1(C)C(=O)NC1CCCCCC1 (configuration not stated)
66	COC(=O)c1ccc2c(=O)[nH]c(COC(=O)c3ccccc3OCc3c(C)noc3C)nc2c1

entry no. | 61 | 62 | 63 | 64 | 65 | 66
Sa growth 42C | 81 | 92 | 107 | 101 | 105 | 82
GIV-Gai inh | -58* | 99 | . | 102 | 107 | .
HCMV NEC inh | -8 | -32 | -19 | -14 | . | -31
Sa growth 42C second temp | 87 | 73 | 92 | 85 | 95 | 88

67	CC(C)c1cc(=O)c2c(=O)n(-c3ccccc3)[nH]c2[nH]1
68	CCN(c1ccc(C)c(C)c1)S(=O)(=O)c1cc(Br)cc2c1N(C(C)=O)C(C)C2 (configuration not stated)
69	COc1ccccc1CNC(=O)CN1C(=O)CSc2ccc(S(=O)(=O)N3CCCCC3)cc21
70	Cc1ccc(Nc2cc([Se]c3ccccc3)c(N)c3c2C(=O)c2ccccc2C3=O)cc1
71	O=C1Nc2ccccc2SC1CO (configuration not stated)
72	COc1ccc(CNC(=O)c2cc(-c3ccc(C)cc3)nc3n[nH]c(-c4ccc(Br)cc4)c23)cc1

entry no. | 67 | 68 | 69 | 70 | 71 | 72
Sa growth 42C | 97 | 107 | 92 | . | 110 | 115
GIV-Gai inh | 105 | 107 | 101 | 105 | . | 105
HCMV NEC inh | -17 | . | . | -3 | 3 | .
Sa growth 42C second temp | 89 | 93 | 95 | . | 86 | 77

73	CCOC(=O)c1ccc(NC(=O)C2(S(=O)(=O)c3ccc(Cl)cc3)CC2)cc1
74	COc1ccc(C(C(=O)Nc2ccc(C(C)C)cc2)N(C)C(=O)Cc2cccs2)cc1 (configuration not stated)
75	NS(=O)(=O)c1ccc(CCNC(=O)C2CCCCN2S(=O)(=O)c2ccccc2)cc1 (configuration not stated)
76	O=C(c1ccc(N2CCCC2=O)cc1)N1CCC(Cc2ccccc2)CC1
77	Cn1c(=O)oc2cc(S(=O)(=O)NC(Cc3ccccc3)C(=O)NCc3ccco3)ccc21 (configuration not stated)
78	CC(C)n1c(NCc2cccs2)nc2ccccc21

entry no. | 73 | 74 | 75 | 76 | 77 | 78
Sa growth 42C | 100 | 89 | 96 | . | 103 | 95
GIV-Gai inh | 106 | 99 | . | 97 | 102 | 99
HCMV NEC inh | -10 | 15 | -13 | -10 | . | -8
Sa growth 42C second temp | 88 | 95 | 98 | . | 85 | 81

79	O=C(CCC(=O)N1CCc2cc(S(=O)(=O)NC3CC3)ccc21)N1CCOCC1
80	Cc1nn2c3c(cnc2c1-c1ccc(Cl)cc1)C(=O)CC(/C=C/c1ccccc1)C3 (configuration not stated)
81	O=C(NN1CCN(c2ccccc2)CC1)c1cc(Cl)sc1Cl
82	COC(=O)c1cccc(-c2ccc(/C=C3\C(=O)N(c4ccc(C)c(Cl)c4)N=C3C)o2)c1
83	COc1ccc(-c2cc(C(=O)N3CCC(C(N)=O)CC3)c3ccccc3n2)cc1
84	O=C1c2ccccc2C(Nc2ccccc2)N1c1cccnc1 (configuration not stated)
85	CCN(CC)C(=O)CSc1nc2cc3c(cc2c(=O)n1CCCC(=O)NCc1ccc2c(c1)OCO2)OCO3
86	Cc1cccc(OC(=O)c2snnc2C)c1C
87	Cc1cc(C)nc(NS(=O)(=O)c2ccc(Nc3nc(-c4c(C)nc5sccn45)cs3)cc2)n1

entry no. | 79 | 80 | 81 | 82 | 83 | 84 | 85 | 86 | 87
Sa growth 42C | . | . | 101 | . | 97 | 95 | 91 | 99 | .
GIV-Gai inh | 101 | 94 | 105 | 102 | . | 103 | 107 | 98 | 102
HCMV NEC inh | 5 | -9 | 24 | -2 | 11 | . | . | -25 | -19
Sa growth 42C second temp | . | . | 89 | . | 107 | 86 | 97 | 89 | .

Screening data: PubChem BioAssay, ICCB-Longwood Screening Facility, Harvard Medical School
